High-throughput results from PubChem BioAssay.
Arbovirus inh: antivirals against arbovirus infection; arbovirus infection cell-based antiviral screen; inhibition, % at 10 µM; actives 0.37% (n = 200,000); AID 1251;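 active means inhibition from about 30%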;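 further: bluetongue infection of BSR cells; cell survival read as ATP light after 72 h; 0% = infected wells without compound and 100% = uninfected wells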
Mtb bLac sens: beta-lactam sensitization of Mtb H37Rv; actives 0.27% (n = 330,000); AID 434955; M. tuberculosis H37Rv growth with meropenem, percent inhibition; hits of this screen are not shown here; inhibition, % at 25 µM;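 active means about 74% or more and at least 40 points above the plate without the antibiotic, then above 30% in a dose series; inconclusive means first-round hits that could not be retested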;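 further: growth measured after seven days incubation then overnight dye step; 0% = bacteria only wells and 100% = bacteria with antibiotic; twin plates without the antibiotic show which effects depend on it; some results filed as inactive read as strong as hits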
Mtb growth: M. tuberculosis H37Rv growth inhibitors, H37Rv strain (AID 1626). actives 0.95% (n = 220,000). inhibition, % at 10 µM, or IC50 in µM where a hit was titrated. M. tuberculosis H37Rv growth inhibition; higher % means a stronger effect;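 active means confirmed in a dose series; inconclusive means inhibition above 80% but not taken into the dose series; inactive means below 80% or under 30% at every dose of the series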;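 further: bacteria incubated seven days before Alamar blue readout; 0% = bacteria only wells and 100% = bacteria with antibiotic wells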
YopH PTP inh: blocks Yersinia enterocolitica YopH tyrosine phosphatase. fluorescence Ex485/Em525. inhibition, %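 (about 10 µM by stock and volumes)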. actives 0.16% (n = 140,000). AID 898;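 active means inhibition of 50% or more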;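 further: controls were vehicle for no effect and minimum signal wells for full effect; inactives centre near -20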
RecA intein inh: Mtb RecA intein splicing inhibition; P9WHJ3; cell-free RecA intein splicing, fluorescence; inhibition, %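 (about 9 µM by stock and volumes)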; actives 0.75% (n = 290,000); AID 2221; in the data active means inhibition above about 30%; inconclusive means no clear call, values can overlap the other calls;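 further: 0% = vehicle wells and 100% = reference inhibitor control wells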
Target sequence (P9WHJ3 whole entry, looked up): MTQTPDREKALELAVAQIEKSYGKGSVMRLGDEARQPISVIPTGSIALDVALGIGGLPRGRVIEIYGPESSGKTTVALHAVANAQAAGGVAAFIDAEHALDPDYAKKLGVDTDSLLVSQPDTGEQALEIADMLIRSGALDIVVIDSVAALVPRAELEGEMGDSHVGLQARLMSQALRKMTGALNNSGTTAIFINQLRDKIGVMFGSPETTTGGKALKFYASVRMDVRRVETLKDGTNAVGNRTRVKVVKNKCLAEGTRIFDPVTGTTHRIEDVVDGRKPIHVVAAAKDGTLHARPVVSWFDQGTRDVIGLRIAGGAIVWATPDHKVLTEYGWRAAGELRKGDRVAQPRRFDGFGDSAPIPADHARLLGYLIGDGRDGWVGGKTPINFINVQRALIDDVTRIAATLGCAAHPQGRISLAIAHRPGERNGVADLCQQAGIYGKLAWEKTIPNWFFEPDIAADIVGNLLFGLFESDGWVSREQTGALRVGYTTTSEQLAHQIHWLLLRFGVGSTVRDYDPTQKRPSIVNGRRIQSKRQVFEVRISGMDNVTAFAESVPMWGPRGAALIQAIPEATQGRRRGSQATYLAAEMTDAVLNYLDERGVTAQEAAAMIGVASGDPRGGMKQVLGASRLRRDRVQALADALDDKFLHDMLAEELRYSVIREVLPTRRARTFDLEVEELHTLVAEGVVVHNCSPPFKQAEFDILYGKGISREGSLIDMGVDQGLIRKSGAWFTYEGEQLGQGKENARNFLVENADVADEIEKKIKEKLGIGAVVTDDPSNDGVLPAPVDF
Arbovirus inh repeat: second read-out of Arbovirus inh, no call of its own (marks repeat the call); inhibition, %; measured here: 10K subset replicate screen; many hits read low in the repeat;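 first of two repeat runs on a subset; 0% = infected and 100% = uninfected wells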
* = called active by the depositor; ? = inconclusive; / = no result given. Not all compounds are listed. The share of hits here may be higher or lower than overall.

SMILES	Arbovirus inh	Mtb bLac sens	Mtb growth	YopH PTP inh	RecA intein inh	others
COc1ccc(C(C(=O)NC(C)(C)C)N(Cc2ccccc2)C(=O)CCC(=O)Nc2cc(C)on2)cc1 (stereo not given)	-6.3	1.3	3.3%	/	3.1
CC(=O)n1cc([C@H]2C=C(C(=O)N3CCN(Cc4ccccc4)CC3)O[C@@H](OCCCCO)C2)c2ccccc21	0.1	1.5	1.6%	/	0.2
COc1cccc(CNS(=O)(=O)c2c(C)nc3sccn3c2=O)c1	/	-5.8	/	/	1.5
Cc1cc(COc2ccccc2)oc1C(=O)O	/	-3.1	/	/	0.8
CSc1ccccc1OCc1cc(C(=O)NC(C)CCn2cccn2)no1 (stereo not given)	/	-2.3	/	/	-5.5
COc1cccc(NC(=O)NCCCCc2ccccc2)c1	/	-10.8	/	/	3.4
Cc1cc(C)n(-c2ccc(C(=O)OCC(=O)Nc3ccc(Cl)cc3[N+](=O)[O-])cc2)n1	-2.2	6.1	-0.1%	-25.7	-1.1
CN(CC1CCN(CCc2cccc(C(F)(F)F)c2)CC1)C(=O)c1ccc(F)cc1	/	-5.6	/	/	1.0
Cc1cccc(C)c1NC(=O)c1cnccn1	/	-5.5	/	/	-1.6
CCOc1ccc(OCC(=O)OCC(=O)N(CC(C)C)c2c(N)n(Cc3ccccc3)c(=O)[nH]c2=O)cc1	/	-1.0	/	/	0.0
Cc1cc(C(=O)N2C(C)CCCC2C)no1 (stereo not given)	/	9.1	/	/	-2.3
COCCN1C(=O)C(=O)/C(=C(/O)c2cccc(S(=O)(=O)N(C)C)c2)C12C(=O)N(C)c1ccccc12 (stereo not given)	-5.8	2.7	-5.1%	-31.7	1.1
CCCN(CCC)CCCNC(=O)c1nn(-c2cccc(OC)c2)c(=O)c2ccccc12	4.3	0.8	3.4%	/	-1.4
Cc1ccc(C(=O)N/C(=C\c2ccccc2)C(=O)NCCCn2ccnc2)cc1	-4.9	5.7	-7.2%	/	-1.2
COc1ccc(-c2cc3c(=O)n(CC(=O)NCCCN4CCN(Cc5ccccc5)CC4)ncn3n2)cc1	/	?	/	/	1.6
C=CCN(C(=O)CCC(=O)Nc1cc(C)on1)C(C(=O)NC1CCCC1)c1ccc(Cl)cc1 (stereo not given)	/	8.8	/	/	1.2
N#Cc1cccc(CN2CCC(=O)N(CCO)CC2)c1	/	-9.3	/	/	-2.5
CC(NCc1ccc2c(c1)OCO2)C(=O)NC1CCCCC1 (stereo not given)	-1.3	-3.3	-5.5%	/	-4.4
CC1(C)CC(N2CCC(=O)N(C3CC(C)(C)NC(C)(C)C3)C2)CC(C)(C)N1	5.4	-13.2	0.2%	-28.6	4.9
C/C(=N\NC(=O)c1cccnc1)c1c(O)cc(C)oc1=O	-2.8	1.1	-6.3%	-15.0	-2.4
Fc1ccc(NC(=S)N2CCCN(c3ccc(C(F)(F)F)cn3)CC2)c(F)c1	/	-12.1	5.8%	/	2.0
COc1cc([N+](=O)[O-])cc(/C=N\NC(=O)C2COc3ccccc3O2)c1O (stereo not given)	/	21.4	-6.6%	/	4.4
Cc1ccc2nc(Cl)c(/C=N/NC(=O)[C@H]3C[C@@H]3c3ccccc3)cc2c1	6.8	17.0	11.2%	-24.4	-1.9
CC(C)Oc1ccc(C(=O)Nc2ccc(NC(=O)c3ccco3)c(Cl)c2)cc1	1.3	-4.8	-6.1%	-2.6	3.7
CCCn1c(SCC(=O)OCc2ccccc2)nc2c1c(=O)n(C)c(=O)n2C	0.4	6.5	-14.8%	-37.5	-3.4
N#Cc1ccc[n+](CC(=O)c2ccc(NC(=O)c3ccccc3)cc2)c1	/	-5.5	/	/	-0.1
O=C(Cn1nnc2c(cnn2-c2ccc(F)cc2)c1=O)c1ccccc1F	21.2	0.9	-1.3%	-3.2	/
CCOC(=O)C1CCN(c2nc(N)c3c(N)nc(SCC(=O)O)cc3c2C#N)CC1	/	/	1.3%	/	45.2*
CC(=O)C1=C(C)NC2=C(C(=O)CC(C)(C)C2)C1C (stereo not given)	21.9	-1.2	-5.6%	/	-17.3
Nc1c2c(nc3ccc(Br)cc13)N(C1CCCCC1)CC2	-36.4	98.3	8.28µM*	/	-9.0
COc1cc(OC)c(C2SCCS2)c(OC)c1	-1.8	-10.3	0.7%	-21.3	-0.3
CCOC(=O)c1cnc2c(OC)cccc2c1NCc1cccnc1	28.4	3.4	-0.3%	/	/
CCCOC(=S)Nc1ccccc1	-5.1	1.1	1.5%	-5.9	-0.8
Clc1ccc(N2CCN(c3cnc4ccccc4n3)CC2)cc1	18.2	41.3	5.8%	-8.8	0.1
Cc1cc(S(=O)(=O)N2CCOCC2)ccc1OCC(=O)Nc1cccc(F)c1	/	0.5	/	/	0.0
c1cncc(-c2nc(N3CCOCC3)c3c4c(sc3n2)CCC4)c1	-5.0	2.2	0.9%	/	0.8
CCc1nn(CCCC(=O)Nc2ccc(C)cc2C)c(=O)c2cc3occc3n12	/	5.1	/	/	1.8
N#Cc1cc([N+](=O)[O-])ccc1N1CCN(c2ccccc2O)CC1	1.0	-2.4	1.7%	/	-1.8
COc1ccccc1/C=N/n1c(N)c(C(=O)NC2CCCCC2)c2nc3ccccc3nc21	-4.5	/	-8.6%	-42.5	/
COc1cc(/C=N/NC(=O)CCN2CCN(C)CC2)cc2c1OCO2	/	1.7	/	/	-2.3
O=C(Cn1cnc2c(nnn2Cc2ccc(F)cc2)c1=O)NCc1ccc2c(c1)OCO2	2.3	-2.3	-2.0%	-22.6	4.6
Cc1[nH]nc(-c2ccc(O)cc2O)c1-c1nc2ccccc2s1	8.7	-2.1	0.6%	/	-4.7
CCOC(=O)C1(CCOc2ccccc2)CCN(CC=C(C)C)CC1	/	-7.7	/	/	-1.8
COc1ccc(CNC(=O)CSCc2c(F)cccc2Cl)cc1	1.2	-4.0	10.4%	/	0.4
Cc1ccc(NC(=O)N2CCSc3ccccc32)cc1	0.7	-1.0	5.9%	/	-0.2
O=S(=O)(NCCc1ccccn1)c1ccc(OC(F)(F)F)cc1	/	-6.2	/	/	1.0
Cc1cc(=O)[nH]c(-c2cccs2)n1	/	-6.4	-10.3%	/	-0.1
CCOC(=O)C1CCN(C(=O)c2ccc3nc(-c4ccc(OC)cc4)c(-c4ccc(OC)cc4)nc3c2)CC1	/	95.4	/	/	-62.3
C=CCNC(=O)CN(c1cc(Cl)ccc1OC)S(=O)(=O)c1ccc(C)c([N+](=O)[O-])c1	-1.9	-3.5	-4.3%	/	-1.3
CC(=O)c1ccc(NC(=O)C[n+]2ccc(N(C)C)cc2)cc1	/	-4.3	/	/	-0.5
O=C(O)/C=C/c1ccc(S(=O)(=O)Nc2cccnc2)cc1	/	-5.0	/	/	-0.1
Cc1ccc(S(=O)(=O)/C=C2\NC(=O)CS2)cc1	0.6	-11.3	-11.4%	-26.2	0.9
O=C1CCCC/C1=C\Nc1ccc(Cl)cn1	-3.3	1.1	-0.5%	-15.9	-3.3	Arbovirus inh repeat=-2.4
Cc1ccc(S(=O)(=O)N2C(=O)CCC2C(=O)O/N=C(\N)c2cccc([N+](=O)[O-])c2)cc1 (stereo not given)	/	-18.7	/	/	2.6
COCCNC(=O)/C(C#N)=C/c1cccc(/C=C(\C#N)C(=O)NCCOC)c1	1.3	-4.1	-0.9%	-38.8	4.3
O=C(O)c1nn(CC(=O)N2CCCCCC2)c(=O)c2ccccc12	22.9	-2.1	-9.9%	/	3.0
C=CCNC(=S)NNC(=O)COc1c(Cl)cc(Cl)cc1Cl	-7.1	4.8	0.2%	-25.1	-0.9
Cc1ccc(C(NC(=O)NC(C)c2ccccc2)C(Cl)(Cl)Cl)cc1F (stereo not given)	-12.5	1.8	1.0%	-45.6	4.0
CCOC(=O)N1CCN(C(=O)Nc2ccc3nccnc3c2)CC1	4.7	-5.7	-4.7%	-21.0	-0.6
O=C(NN1C(=O)NC2(CCCCC2)C1=O)c1ccc(-c2ccc([N+](=O)[O-])cc2)o1	/	-5.6	/	/	-2.3

Next part
SMILES	Arbovirus inh	Mtb bLac sens	Mtb growth	YopH PTP inh	RecA intein inh	others
COc1ccc(-c2nnc(NC(=O)C3CCCO3)s2)cc1 (stereo not given)	-5.8	1.4	-11.4%	-146.7	0.0
CCOC(=O)/C=c1\sc2n(c1=O)CCN=2	2.3	12.5	-1.9%	-47.7	2.7	Arbovirus inh repeat=5.4
CC(=O)Nc1ccc(NC(=O)CSC2=NCCS2)cc1	3.7	/	5.4%	-29.9	2.4
Cc1cc2n(n1)SC(Nc1cccc3ccccc13)N2 (stereo not given)	3.0	-12.8	10.9%	-7.8	4.5
CCc1ccc(NC(=O)CCN2C(=O)c3cccnc3C2=O)cc1	-0.2	-5.4	1.1%	-36.5	0.7
O=C(CNS(=O)(=O)c1ccc(Br)cc1)NC1CCCC1	/	-5.2	/	/	2.5
CCS(=O)(=O)N1Cc2ccccc2CC1C(=O)N(C)CC(=O)Nc1ccc(F)c(F)c1F (stereo not given)	/	-5.3	/	/	2.7
O=[N+]([O-])c1ccc(Sc2cccc3cccnc23)cc1	-1.7	31.9	30.8%	-14.0	4.7
Cc1c(C(=O)NCCN2CCOCC2)oc2ccccc12	2.8	4.4	-1.7%	-12.3	-2.5
CCOc1ccc2[nH]c(=O)c(CN(CCc3ccccc3)C(=O)N3CCOCC3)cc2c1	-1.4	-11.3	/	-3.1	0.4
O=C(/C=C/c1ccccc1Cl)N(c1ccccn1)C1CCCCC1	15.3	2.0	6.7%	-25.2	7.7
COc1ccc(S(=O)(=O)N2CCN=C2SCc2cccc(F)c2)cc1	/	-3.8	/	/	-0.8
Cc1ccc(N(CC(=O)NCc2ccc(F)cc2)C(=O)c2snc(C(N)=O)c2N)cc1C	/	1.3	/	/	0.5
Nn1c(Cc2ccccc2)nc2cc(Cl)ccc2c1=O	/	0.8	/	/	2.0
O=[N+]([O-])c1ccc(NCc2ccccc2N2CCC(CO)CC2)nc1	/	11.0	/	/	-2.0
COc1ccc(S(=O)(=O)N(C)c2ccc(C(=O)Nc3ccccc3C(=O)N3CCOCC3)cc2)cc1	/	-4.8	/	/	-2.2
CCOC(=O)c1oc2ccc(S(=O)(=O)n3nc(-c4ccc(Cl)cc4)cc3N)cc2c1C	-12.4	6.1	1.7%	-8.7	0.2
O=C(COC(=O)Cc1c(Cl)cccc1Cl)Nc1ccc2[nH]c(=O)[nH]c2c1	/	-6.3	/	/	-1.3
COc1ccc(OC)c(S(=O)(=O)Nc2c(NC3CCCCC3)c3ccccc3oc2=O)c1	/	6.5	/	/	-1.5
CCC(Sc1nc2cc3c(cc2c(=O)n1Cc1ccco1)OCO3)C(=O)NCCOC (stereo not given)	-2.7	2.7	1.9%	-112.9	0.0
S=C(NCCN1CCOCC1)N1CCN(c2cccc(Cl)c2)CC1	/	3.8	/	/	-1.3
CCc1[nH]nc2c1C(c1cccc(OC(=O)N3CCOCC3)c1)C(C#N)=C(N)O2 (stereo not given)	-3.4	10.9	0.1%	-26.2	69.5*
O=C(COC(=O)c1ccc([N+](=O)[O-])cc1)Nc1cccnc1Cl	/	3.0	/	/	-1.7
COc1ccccc1N1CCN(Cc2cccc(Br)c2)CC1	/	3.5	/	/	-0.3
COc1ccc2[nH]c(=O)c(CN(Cc3cccs3)C(=S)Nc3ccccc3)cc2c1	-1.5	-3.1	7.5%	-58.1	-4.2
CN(CC(=O)Nc1ccc(N2CCOCC2)cc1)C(=O)c1cc(S(=O)(=O)N(C)C)ccc1Cl	/	-7.0	/	/	-7.9
O=C(NC(=S)NCC1CCCO1)c1cccc([N+](=O)[O-])c1 (stereo not given)	6.6	1.3	11.3%	-3.3	-4.0
COc1ccccc1NC(=O)CSc1nc2sc(C)c(C)c2c(=O)n1Cc1ccco1	4.8	-14.8	-3.0%	-40.5	2.2	Arbovirus inh repeat=-4.5
COc1ccc(NC(=O)C2CC(=O)N(C)C(=Nc3ccc4c(c3)OCO4)S2)cc1 (stereo not given)	-14.5	-0.6	9.8%	-2.1	3.3
COc1ccccc1N1CCN(C(=O)CCC(=O)N2CCN(c3ccccc3OC)CC2)CC1	/	0.1	/	/	-9.8
